# HCMV NEC inh: disrupts HCMV UL50-UL53 complex binding. HTRF UL50-UL53 interaction, normalized percent inhibition. inhibition, % (concentration not given with the values). actives 0.15% (n = 190,000);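 active = both replicates at 50% or more, plus weaker picks with an unusually low signal ratio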;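 note: stock transfer was 100 nL into about 20 µL; 0% = negative control wells and 100% = wells with untagged competitor protein; inactives centre near -12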
# GIV Gai3 FP: inhibitors of GIV GBA-motif binding to rat Galpha-i3 | P08753 | actives 0.42% (n = 210,000) | AID 1224905 | percent of control (FP), % (concentration not given with the values) | Galpha-i3/FITC-GIV peptide fluorescence polarization, 90 min; active compounds read low; scaled: aluminum fluoride 0%, vehicle 100%;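 active = replicate mean at 85% of control or lower, very high polarization wells dropped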;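 note: wells of about 15 µL received 100 nL stock; the first replicate is given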
# Target sequence (P08753 whole entry, looked up): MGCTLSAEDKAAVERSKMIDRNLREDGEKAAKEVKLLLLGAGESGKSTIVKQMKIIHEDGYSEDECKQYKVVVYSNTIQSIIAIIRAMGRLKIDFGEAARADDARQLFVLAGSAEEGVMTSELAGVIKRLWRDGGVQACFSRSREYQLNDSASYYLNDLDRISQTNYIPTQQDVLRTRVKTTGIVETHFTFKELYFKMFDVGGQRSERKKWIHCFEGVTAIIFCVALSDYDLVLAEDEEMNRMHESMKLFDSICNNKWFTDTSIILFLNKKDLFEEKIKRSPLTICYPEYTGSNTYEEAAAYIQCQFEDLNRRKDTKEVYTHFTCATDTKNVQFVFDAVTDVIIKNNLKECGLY
# Sa growth 42C: inhibitors of Staphylococcus aureus growth at 42 °C. actives 0.53% (n = 170,000). S. aureus RN4220 growth, OD600, 20 h; active compounds read low. relative growth, % (no concentration beside the values);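 active = growth at 42 °C up to 50% and 20 or more points under that at 30 °C, or under 10% at both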;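 note: 300 nL library stock went into each well; scaled to the means of positive and negative controls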
# Sa growth 42C second temp: second read-out of Sa growth 42C, no call of its own (marks repeat the call); relative growth, %; measured here: growth at 30 °C;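 optical density after 20 h as mean of two plates; 100% = untreated growth and lower means inhibition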
# Numbers without * were called inactive; x = not tested or not shown; & = joins results of further samples.
SMILES,HCMV NEC inh,GIV Gai3 FP,Sa growth 42C,Sa growth 42C second temp
Cc1cc(S(=O)(=O)C(CNC(=O)c2ccccc2C)c2cccnc2)ccc1F (configuration not stated),-30,109,x,x
O=C(COc1ccccc1Cl)Nc1ccnn1C1CCCC1,-18,101,x,x
Cc1cc(C)c2c(CC(=O)Nc3ccc(F)cc3)coc2c1,0,107,109,90
CCn1cc(S(=O)(=O)N2CCc3ccccc3C2)cn1,-4,103,96,98
Clc1ccc(CSc2nc3ccccc3s2)cc1,x,98,81,95
O=C(Nc1cccnc1)c1cccs1,-21,100,121,101
O=C(Cc1ccc(F)cc1)N1CCCCC1,-21,105,106,85
O=S(=O)(Nc1cccc(-c2ccc(N3CCCC3)nn2)c1)c1ccc(F)c(C(F)(F)F)c1,x,102,80,95
Brc1cccc(-c2nnc(CN3CCN(c4ccccn4)CC3)o2)c1,-4,105,118,99
CCOC(=O)C(CC)Sc1nnc(COc2ccc(Cl)c(C)c2)n1CC (configuration not stated),0,99,96,50
N#CC1(NC(=O)COC(=O)c2ccccc2C(F)(F)F)CCCC1,-32,x,77,94
CC1CCN(c2nc3ccccc3nc2N2CCC(C)CC2)CC1,2,x,84,98
COc1cc(C2Sc3ccccc3NC3=C2C(=O)OC3)cc(OC)c1OC (configuration not stated),-4,x,94,85
COc1ccc(NC(=O)CSc2nc(-c3cccs3)cc(C(F)(F)F)n2)cc1Cl,-32,99,84,83
CCCCC1(COC(=O)c2ccc(OC)cc2)C(=O)N(c2ccccc2)N(c2ccccc2)C1=O,-42,108,105,76
Cc1cc(N2CCCC2)n2nc(C(F)(F)F)c(-c3ccccc3Cl)c2n1,-12,105,x,x
CC1CCN(S(=O)(=O)c2ccc3c(c2)CCC(=O)N3CC(=O)N2CCN(C)CC2)CC1,-25,106,x,x
OCCNc1cc(-c2ccccc2)nc(-c2ccc(Br)cc2)n1,-1,98,23,0
COc1ccc(N(CC(=O)N2CCC(Cc3ccccc3)CC2)S(=O)(=O)c2c(C)nn(C)c2C)cc1,-29,104,x,x
Cc1ccc2oc3c(c(=O)c2c1)C(c1ccc(O)cc1)N(Cc1ccc2c(c1)OCO2)C3=O (configuration not stated),-52,100,114,94

# One compound at a time, from the list above. Values in the order: HCMV NEC inh	GIV Gai3 FP	Sa growth 42C	Sa growth 42C second temp
# Shown for Brc1cccc(-c2nnc(CN3CCN(c4ccccn4)CC3)o2)c1 : -4	105	118	99
# Shown for CC1CCN(c2nc3ccccc3nc2N2CCC(C)CC2)CC1 : 2	x	84	98
# Shown for Cc1cc(N2CCCC2)n2nc(C(F)(F)F)c(-c3ccccc3Cl)c2n1 : -12	105	x	x
# Shown for N#CC1(NC(=O)COC(=O)c2ccccc2C(F)(F)F)CCCC1 : -32	x	77	94

# (continued)
SMILES,HCMV NEC inh,GIV Gai3 FP,Sa growth 42C,Sa growth 42C second temp
N=C1C(c2nc3ccccc3[nH]2)=C(O)CN1C1CCCCCC1,x,105,99,87
CCOc1cc(/C=C2\SC(=O)N(Cc3ccc(Cl)cc3)C2=O)ccc1OCC(=O)OC,-15,105,x,x
Cc1ccc(OCC(=O)N2CCC(N3CCCCCC3)CC2)cc1,-25,106,103,90
Cc1cnc(NC(=O)c2ccco2)s1,-12,x,97,99
CCC1=NCC(=O)Nc2ccc(Cl)cc21,-3,x,92,92
Cc1ccc(Cl)cc1NC(=O)C(Cc1ccccc1)NS(=O)(=O)c1cccc2nsnc12 (configuration not stated),-36,106,109,83
COc1cc(C(=O)OCc2cc(=O)c(O)co2)ccc1OC(F)F,-24,x,73,82
Cc1ccc(S(=O)(=O)c2nc(-c3ccccc3F)oc2N2CCC(C)CC2)cc1,-16,97,x,x
COc1cc(/C=C2/SC(=S)N(CCC(=O)N3CCOCC3)C2=O)cc(OC)c1OC,-27,112,x,x
CCOc1ccc(N(Cc2ccccc2)C(=O)c2nc(SCC)ncc2Cl)cc1,5,103,96,92
COc1ccc(C(=O)NCC(c2cccnc2)N2CCN(c3ccccc3)CC2)cc1 (configuration not stated),-16&-13,107&106,92,95
O=C(CN1C(=O)CSc2ncccc21)NCc1ccccc1,-7,103,91,92
O=C(NCCN1CCc2ccccc2C1)c1cc(-c2ccc(Br)s2)nc2ccccc12,x,110,83,61
Cc1ccc(OCC(=O)OCc2cc(=O)n3c(C)csc3n2)cc1,x,103,94,89
CN(C)C(=O)CSc1nnc(C23CC4CC(CC(C4)C2)C3)o1,9,100,107,107
CC(=O)NCc1c(Cl)cccc1Sc1ccc(Cl)cc1,2,106,88,90
COC(=O)c1nc2ccccc2nc1N1CCN(c2ccc(Cl)cc2)CC1,-22,95,x,x
CN1CCCc2cc(-c3ccnc4ccccc34)ccc21,-24,x,94,83
Cc1noc(C)c1COC(=O)c1ccc2c(c1)C(=O)N(Cc1ccccc1)C2=O,-74,x,76,93
CCOC(=O)CNc1nc(Cl)nc(N2CCOCC2)n1,4,99,102,88

# An excerpt from above, reduced to Sa growth 42C second temp.
SMILES	Sa growth 42C second temp
O=C(CN1C(=O)CSc2ncccc21)NCc1ccccc1	92
Cc1ccc(OCC(=O)OCc2cc(=O)n3c(C)csc3n2)cc1	89

# Further results follow:
SMILES,HCMV NEC inh,GIV Gai3 FP,Sa growth 42C,Sa growth 42C second temp
COC(=O)c1cc2c(s1)CCCC2,-34,x,113,88
C=CCNC(=O)c1cc(Br)cs1,-8,106,128,98
CC(=O)NC(C)c1nc(-c2ccccc2C)no1 (configuration not stated),8,98,x,x
CCOc1ccc(CC(=O)NCCc2sc3nc(-c4ccc(OC)cc4)nn3c2C)cc1,x,103&99,111,98
COc1ccc(NC(=O)c2nnc(CCCC(=O)NCCc3c(C)noc3C)s2)cc1,-38,100,x,x
O=C1c2ccccc2-c2nn(-c3ccccc3)c(=O)c3ccc(N4CCCCC4)c1c23,-27,102,x,x
O=C(OCC(=O)N1CCOCC1)c1ccc(Cl)cc1,-26,x,98,91
COc1ccc(/C=C/c2nn3c(-c4cccnc4)nnc3s2)cc1,-49,107,x,x
Cc1csc(SCC(=O)c2ccc3c(c2)NC(=O)CO3)n1,-7,x,100,97
Cc1cc(C(=O)Nc2ccc(N3CCOCC3)c(Cl)c2)c(C)o1,-23,103,86,87
CC(NC(=O)CN(C)S(=O)(=O)c1ccc2c(c1)c(=O)n(C)c(=O)n2C)c1ccccc1 (configuration not stated),-12,93,95,88
CCOc1cc(NC(=O)[C@@H](NC(=O)c2ccco2)C(C)C)c(OCC)cc1NC(=O)c1ccccc1,-12,x,86,94
Cc1ccc(S(=O)(=O)Cn2nnnc2CN(Cc2ccco2)Cc2cccs2)cc1,-5,101,112,83
CSc1nsc(SCC(=O)Nc2ccccc2)n1,5,99,102,71
O=C1N(CN2CCCCC2)c2ccccc2C12OCCCO2,-37,108,x,x
O=C(Cn1ncc2ccccc21)N1CCC(Cc2ccccc2)CC1,x,106,125,91
COc1ccc(OC)c(NC(=O)CSc2nc3ccccc3c(=O)n2CCC(=O)NC2CCCCC2)c1,x,104,105,91
O=C(O)c1cc(-n2c(-c3cnccn3)n[nH]c2=S)ccc1Cl,-11,100,107,101
N#Cc1nc(=O)n(-c2ccc(OC(F)(F)F)cc2)c(N)c1N=Cc1ccc(C(F)(F)F)cc1,-11,116,86,80
Cc1ccc(-c2cc(C(=O)Nc3ccc(F)c([N+](=O)[O-])c3)c3ccccc3n2)s1,-23,104,x,x

# Retrieved by compound from above (three):
SMILES,HCMV NEC inh,GIV Gai3 FP,Sa growth 42C,Sa growth 42C second temp
COc1ccc(NC(=O)c2nnc(CCCC(=O)NCCc3c(C)noc3C)s2)cc1,-38,100,x,x
CSc1nsc(SCC(=O)Nc2ccccc2)n1,5,99,102,71
O=C1c2ccccc2-c2nn(-c3ccccc3)c(=O)c3ccc(N4CCCCC4)c1c23,-27,102,x,x

# Other records
SMILES,HCMV NEC inh,GIV Gai3 FP,Sa growth 42C,Sa growth 42C second temp
CCOC(=O)C(C#N)C(c1ccco1)c1ccccc1OC (configuration not stated),-3,102,123,91
CC1CCCCN1C(=O)Cn1ncc2c3ccccc3n(Cc3ccccc3F)c2c1=O (configuration not stated),-12,103,103,80
Cc1cc(C)c2[nH]c(=O)c(CN(C3CCCCC3)C(c3nnnn3Cc3ccco3)C(C)C)cc2c1 (configuration not stated),-14,128,64,55
CCc1ccccc1NC(=O)CCN1C(=O)c2ccccc2C1=O,x,106,82,99
CCc1ccccc1NC(=O)C(CC)Sc1ncnc2c1sc1ccccc12 (configuration not stated),x,101,112,87
COc1cccc(C(=O)Nc2ccc3nc(NC(=O)c4ccccc4)sc3c2)c1,-3,104,x,x
O=C(O)C1C2C=CC(C2)C1C(=O)OCc1ccccc1 (configuration not stated),-4,98,104,98
Cc1cccc(NC(=O)CCNS(=O)(=O)c2ccc3[nH]c(=O)oc3c2)c1,6,103,96,94
CCCc1cc(C(=O)Nc2ccc(C)cc2)no1,3,102,98,102
Cc1ccc(CNC(=O)c2cccc(Nc3nc4ccccc4n4nnnc34)c2)cc1,-2,117,98,89
Cc1ccc(Cl)cc1-n1c(=O)cc(N2CCN(c3ccccc3)CC2)[nH]c1=O,x,95,91,87
C=CCN1C(=O)C2C(C(=O)NCc3ccccc3)C3C=CC2(O3)C1C(=O)NC1CCCC1 (configuration not stated),-23,101,106,95
O=C(Cn1ncc2c([nH]c3ccccc32)c1=O)NCCc1ccsc1,-21,108,101,92
CCC(C)NC(=O)C1CCN(Cc2cc(OC)ccc2OC)CC1 (configuration not stated),-25,99,100,101
Cc1cc(C)c2c(=O)[nH]c(SCC(=O)NCCc3ccccc3)nc2n1,5,99,118,74
Cn1c(C(=O)Nc2ccc(Cl)cc2)cc2c(=O)oc3ccccc3c21,7,102,x,x
CCn1c(C)c(CCC(=O)N2CCC(C)CC2)c(=O)n2nc(-c3ccccc3OC)cc12,-20,103,x,x
CCOc1cc(S(=O)(=O)NCCOC)c(OCC)cc1C,-22,103,103,99
COc1ccccc1N1CC(C(=O)Nc2nc(C)cs2)CC1=O (configuration not stated),-17,x,94,84
CCOC(=O)C1=NN(c2ccc(C)cc2)CC1C(=O)OC (configuration not stated),-62,105,99,88
COc1ccc(-n2c(=S)[nH]c3sc4c(c3c2=O)CCN(Cc2ccccc2)C4)cc1,-59,149,x,x
COc1ccccc1-c1nnc(C2CCN(C(=O)c3ccccc3)CC2)o1,1,102&99,96,88
CC1Cc2cc(S(=O)(=O)NCc3ccccc3)ccc2N1C(=O)C1CCC1 (configuration not stated),x,109,121,86
Cc1cc(-c2nc(C(=O)N3CCCCC3)cs2)no1,-21,98,89,86
CC1CC(C)CN(C(=O)c2ccco2)C1 (configuration not stated),2,x,87,89
Cc1ccc(S(=O)(=O)N2CCCC(c3nc(-c4ccc5c(c4)OCO5)no3)C2)cc1 (configuration not stated),-25,102,x,x
Cc1[nH]c2ccc(CN)cc2c1C,-3,108,103,92
Cc1ccc2c(c1)-c1c(cnn1CC(=O)NCCc1ccc(S(N)(=O)=O)cc1)CO2,-4,104,98,101
N#Cc1cccc(NC(=O)C2SC(=NCc3ccco3)C(C(=O)N3CCCC3)=C2N)c1 (configuration not stated),-33,x,69,82
CCCc1cc(C2C(C#N)=C(N)Nc3oc(OC)nc32)ccc1OC(C)C (configuration not stated),-25,x,98,72
CC(=O)N1c2ccccc2C(=O)C1N1CCN(c2cccc(C)c2C)CC1 (configuration not stated),x,107,107,89
CC(C)Sc1nc(=O)n(CCc2ccccc2)c2c1CCC2,-13,104,x,x
CCn1cc(C(=O)NCCc2ccc(Cl)cc2)c(=O)c2cc(S(=O)(=O)N3CCOCC3)ccc21,-21,101,93,92
CC(Sc1nnc(C2CCCCC2)n1N)C(=O)NC(N)=O (configuration not stated),-7,x,95,96
CC(=O)NCc1c(I)c(NC(C)=O)c(I)c(C(=O)O)c1I,-31,x,91,89
O=C(/C=C/c1ccc2c(c1)OCO2)N1CCN(CCN2C(=O)c3cccc4cccc(c34)C2=O)CC1,-7,110,x,x
Cc1[nH]c2ccccc2c1C(=O)CSc1nc2ccccc2o1,3,110,95,89
Cc1ccccc1NC(=O)c1ccc2c(c1)c(C)c(C)n2Cc1ccccc1,x,103,85,83
Cn1c(=O)c2cc(C(=O)NC3CCCCCC3)sc2c2ccccc21,-15,97,99,73
O=C(CSc1ncc(-c2ccccc2)[nH]1)Nc1ccc(F)cc1F,0,107,109,72
CCOC(=O)CSc1nc2c(sc3ccccc32)c(=O)n1CCCOC(C)C,6,100,85,80
CCCCOc1ccc(OCCCC)c2c1nc(-c1ccccc1N)c(=O)n2C,-3,106,x,x
O=C(NCc1ccc2c(c1)OCO2)c1ccc2c(=O)n3c(nc2c1)CCCCC3,8,108,101,96
CCOC(=O)c1ccc(-c2c(C(=O)OCC)oc3cc(O)c(CC)cc3c2=O)o1,22,108,104,73
O=S(=O)(c1ccc(Cl)cc1)N1c2ccccc2Sc2ccc(C(F)(F)F)cc21,x,99,112,81
COC(=O)Nc1ccc(S(=O)(=O)NCC(OC)OC)cc1,-2,x,117,88
COc1ccc(/C=C/C#N)cc1OC,36,98,97,108

# Compound activity deposited in PubChem by ICCB-Longwood Screening Facility, Harvard Medical School.
